Compound activity (PubChem)
HIV TAR-Tat: TAR RNA-Tat peptide displacers, HIV-1, primary screen, biochemical, FRET, FAM/TAMRA-labeled Tat. HIV-1 TAR RNA, Tat peptide displacement FRET; active compounds read high. z-score (no concentration beside the values). actives 0.6% (n = 100,000);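 also: score is relative to mean and SD of negative controls; some compounds called inactive have numbers as strong as hits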
CDC25B CDK2 inh: primary biochemical HTRF screen for blockers of M-phase inducer phosphatase 2 binding to CDK2/cyclin A; HTRF CDC25B-CDK2/CyclinA binding, anti-His/anti-Flag; active compounds read high; actives 0.72% (n = 94,000); z-score (no concentration beside the values);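 also: score is relative to mean and SD of negative controls; strong numbers were not always called active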
The depositor's hits bear a star; . = not tested or not shown.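 The calls were made as follows: active = z-score from 3 up in half or more of its runs; inactive = the rest.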

SMILES	HIV TAR-Tat	CDC25B CDK2 inh
CC1CCCCN1CCn1cnc2c([nH]c3ccc(Cl)cc32)c1=O (stereo unspecified)	0.96	-0.66
Cc1ccc(-c2nnc3ccc(SCC(N)=O)nn23)cc1	.	-2.3
C=CCSc1nc2c(c(=O)[nH]1)C1(CCCC1)Cc1ccccc1-2	.	-0.05
Cc1cc(Br)ccc1NS(=O)(=O)c1cc(-c2ccc(=O)[nH]n2)cc(C)c1C	0.43	.
CS(=O)(=O)CCSc1ncccc1C(=O)Sc1ccc(Cl)cc1Cl	.	-2
O=C1COCC(=O)N1Cc1csc2ccccc12	.	-0.81
Cc1nn(-c2ccccc2)c2c1-c1sc(C(=O)NCC3CCCO3)cc1CC2 (stereo unspecified)	1.7	.
CN(C(=O)c1cc2c(s1)-c1ccccc1OC2)c1ccccc1	2.1	-0.79
CCc1ccc(S(=O)(=O)Nc2ccc3c(c2)N(S(=O)(=O)CC)CCC3)s1	-0.78	.
CCC12CN3CC(CC)(CN(C1)C3c1cc(Br)ccc1OC)C2=O (stereo unspecified)	1.3	-1.9
CC[n+]1c(/C=C/C=C2/N(C)c3ccccc3C2(C)C)sc2ccccc21	.	-5.4
Cc1ccnc(N(C(=O)Nc2cccc(Cl)c2)C2=NCC(C)S2)c1 (stereo unspecified)	.	1.2
Cc1cccc(-n2ccc(=O)c(C(=O)Nc3c(C)n(C)n(-c4ccccc4)c3=O)n2)c1	0.06	-0.63
CCCCNc1nc2c(S(=O)(=O)c3ccc(Br)cc3)nnn2c2ccsc12	0.3	.
CCc1nnc2c(N3CCN(c4cccc(OC)c4)CC3)nc3ccccc3n12	0.58	.
Cc1ccc(C)n1-c1ccc(N2CCOCC2)c([N+](=O)[O-])c1	.	-1.7
Cc1ccc(Nc2nc3ccccc3n3nnnc23)cc1Cl	1.4	-2.6
Cc1cc(F)ccc1NC(=O)c1cn2c3c(ccc(Cl)c3c1=O)OC(C)C2 (stereo unspecified)	1.5	.
Cc1nnc(N2C(=O)C(=O)/C(=C(/O)c3ccc(F)cc3)C2c2ccc(C(C)C)cc2)s1 (stereo unspecified)	.	-1.2
CC(C)c1ccc(Nc2nc3ccccc3n3nnnc23)cc1	-0.38	-0.81
Cc1nc(C)c(-c2ccc(SCC(=O)Nc3ccccc3F)nn2)s1	0.09	.
CCOc1ccc(OCC)c(NS(=O)(=O)c2ccc3c(c2)NC(=O)CCS3)c1	0.27	.
O=S(=O)(NCc1ccccc1)c1cccc(S(=O)(=O)c2ccc(Cl)cc2)c1	2.2	0.49
Cc1ccc2c(c1)cc1c(=O)n(Cc3cccc(F)c3)nc(C)n12	2	0.17
Cc1ccc(NS(=O)(=O)c2cc(-c3nc(C)no3)ccc2C)c(C)c1	0.36	.
COc1ccc(C(=O)N2CCc3cc4ccc(OC)cc4nc32)cc1	-1.4	-0.21
Cc1nnc2ccc(N3CCN(c4ccccn4)CC3)nn12	2	-0.65
O=C(Cn1cc(C(=O)c2ccco2)c2ccccc21)Nc1ccccc1	2.2	-0.64
CNc1nc(-c2cccs2)ns1	.	-1.2
Cc1cc2[nH]c(=O)c(=O)[nH]c2cc1S(=O)(=O)N1CCOCC1	0.08	.
CO/N=C1\C(=O)N(C)c2ccccc21	.	-1.4
Cc1ccc(NS(=O)(=O)c2c(C)nc3sccn3c2=O)cc1	1.2	1.2
Cc1ccc(S(=O)(=O)NC(=O)N(C)CCc2ccccn2)cc1	.	-2.3
O=C(CC1(O)C(=O)Nc2ccc(F)cc21)c1ccc(-c2ccc(Cl)cc2)o1 (stereo unspecified)	-0.45	.
O=C(NC1CC1)C1CCN(c2cnccn2)CC1	1.1	-1.6
N#Cc1c(N2CCOCC2)nnc(-c2ccccc2)c1-c1ccccc1	.	-0.14
CC(C)Cc1nc(SCc2cc(=O)n3nc(-c4ccccc4)sc3n2)n[nH]1	-0.16	.
COC(=O)c1ccc(C2CC(=O)Nc3cc4c(cc32)OCCO4)cc1 (stereo unspecified)	.	-1.4
CNC(=O)c1c(NC(=O)c2nn(-c3ccc(C)cc3)ccc2=O)sc2c1CCCC2	-0.42	-0.44
COc1ccccc1CNc1c(-c2ccc(OC)c(OC)c2)nc2ncccn12	-1.7	.
O=[N+]([O-])c1cn(Cc2ccc(F)cc2)cn1	0.12	-1.6
O=C(CSc1cn(CC(=O)N2CCOCC2)c2ccccc12)NC1CCCCC1	1.3	.
CS(=O)(=O)c1ccc(-c2ccc(NS(=O)(=O)c3cc(F)ccc3F)cc2)nn1	-0.61	.
CCCN1CCN(C(=O)C2CCN(c3nnc(N4CCCC4=O)s3)CC2)CC1	1.1	.
COc1ccc(OC)c(NC(=O)NCc2noc3ccccc23)c1	0.85	.
Cc1ccc2c(C)nc(NC3=NCN(Cc4ccco4)CN3)nc2c1	-0.3	-1.5
CCCCCn1cnc2c(oc3nc4c(cc32)COC(C)(C)C4)c1=O	0.44	.
O=S(=O)(Oc1ccc2nonc2c1)c1ccc(Cl)s1	.	-1.1
O=C(CCCn1c(=O)c2cccn2c2ccccc21)N1CCCCC1	1.9	.
COc1ccc(C2(C)Nc3ccccc3-c3nc4ccccc4n32)cc1 (stereo unspecified)	.	-0.73
Cc1ccc(CSc2nc3ncccc3o2)cc1	-0.1	.
Cn1c2c(c3c1CCCC3)CCCC2	.	-1.5
Cc1ncc(-c2ccc(S(=O)(=O)N3CCc4ccccc4C3)s2)o1	2.5	.
COc1ccccc1-c1nn2c(-c3ccccc3OC)nnc2s1	0.57	-0.31
CCS(=O)(=O)N1CCC2(CC1)OC(=O)C(C)=C2C(=O)NCCOC	0.27	.
CC1(C)CC(n2c(=S)[nH]c3c(c2=O)C2(CCCCC2)Cc2ccccc2-3)CCO1 (stereo unspecified)	.	-0.33
COc1ccc2nc3oc(C(=O)Nc4ccc(F)c(Cl)c4)cc3cc2c1	.	-0.53
COC(=O)c1sc(=S)n(-c2cc(F)ccc2F)c1N	2.8	.
Cc1cccc(-c2sc(=S)n3c2[nH]c(=O)c2ccccc23)c1	-1.7	-1.6
O=C(CCCn1sc2ccccc2c1=O)NCc1cccs1	1.7	-2.4

Further results
SMILES	HIV TAR-Tat	CDC25B CDK2 inh
Cc1cc(C)c(-c2c(N(C)Cc3ccccc3)c(=O)c2=O)cc1C	-2	.
Cc1ccc(C)c(N2CCN(S(=O)(=O)c3cnc[nH]3)CC2)c1	-0.94	-1.5
CN(C)S(=O)(=O)c1ccc(S(=O)(=O)N(Cc2ccco2)Cc2ccccc2Cl)cc1	1.1	-1.6
O=C(Nc1ccccc1C(F)(F)F)N1CCCC1c1cccnc1 (stereo unspecified)	.	-1.9
Cc1ccc(C2Nn3c(C)nnc3SC2C(=O)Nc2ccc(Br)cc2Cl)cc1 (stereo unspecified)	0.36	0.6
N#C/C(=C\c1ccc(C#Cc2ccccc2)s1)C(=O)c1cccs1	.	-1.4
CCCCCn1c(C2CC(=O)N(c3ccc(F)cc3)C2)nc2ccccc21 (stereo unspecified)	1.9	-2.5
COc1ccc(C2C(C#N)=C(N)OC3=C2C(=O)CC(C)(C)C3)cc1COc1ccc(Cl)cc1 (stereo unspecified)	.	-2.3
COc1ccc(C2CC(=O)C3=C(C2)NC(C)=C(C(=O)OC(C)C)C3c2ccc(OC)c(OC)c2)cc1 (stereo unspecified)	0.64	-1.9
COc1cccc(C(O)c2nc3ccccc3n2C(C)C)c1OC (stereo unspecified)	.	-1.1
CC(=O)Nc1ccc2c(c1)nc1n2CCN(C(C)C)C1	-7.6	-0.16
Cc1ccc(-c2nc(-c3ccncc3)no2)cc1Cl	-0.46	0.22
CCOc1ccc(S(=O)(=O)NCCc2csc3nc(-c4cccs4)nn23)cc1	-0.84	.
Cc1noc(C)c1S(=O)(=O)NC(=O)c1cn2cc(C(F)(F)F)cc(Cl)c2n1	.	-1.9
Cn1cc(S(=O)(=O)N2CCOCC2)cc1C(=O)Nc1ccc(Cl)cc1F	1.1	.
Cc1[nH]nc2c1C(c1cccc(O)c1)N(c1ccc(Br)cc1)C2=O (stereo unspecified)	1.4	.
CCC(C)(C)NC(=O)CCS(=O)(=O)c1cc2c(cc1Cl)NC(=O)CO2	1.7	.
Cn1c(=O)[nH]c(=O)c2c1nc(N1CCCCC1)n2CCO	2.4	-1.5
O=C1c2oc3ccc(Cl)cc3c(=O)c2C(c2cccc(Cl)c2)N1CCCN1CCOCC1 (stereo unspecified)	-0.53	-1.9
COc1ccc2[nH]c(C)c(CN3CCCC3)c(=O)c2c1	0.78	1.2
O=C1/C(=C/C2CCCCC2)CCCc2ccccc21	.	-2.3
C=CCN(Cc1nc(-c2ccc(OC)cc2)no1)C(=O)NC1CCCCC1	2	-1.2
COc1ccc(Nc2nc3ccccc3n3nnnc23)cc1OC	-1.3	-1.1
O=C(Cn1cnc2c(nc3n2CCCCC3)c1=O)N1CCN(c2cccc(Cl)c2)CC1	1.3	.

Part of the list above in order of length of the SMILES, falling.
SMILES	HIV TAR-Tat	CDC25B CDK2 inh
COc1ccc(C2C(C#N)=C(N)OC3=C2C(=O)CC(C)(C)C3)cc1COc1ccc(Cl)cc1 (stereo unspecified)	.	-2.3
Cc1noc(C)c1S(=O)(=O)NC(=O)c1cn2cc(C(F)(F)F)cc(Cl)c2n1	.	-1.9
O=C(Cn1cnc2c(nc3n2CCCCC3)c1=O)N1CCN(c2cccc(Cl)c2)CC1	1.3	.
CCc1ccc(S(=O)(=O)Nc2ccc3c(c2)N(S(=O)(=O)CC)CCC3)s1	-0.78	.
CC(C)Cc1nc(SCc2cc(=O)n3nc(-c4ccccc4)sc3n2)n[nH]1	-0.16	.
Cc1nn(-c2ccccc2)c2c1-c1sc(C(=O)NCC3CCCO3)cc1CC2 (stereo unspecified)	1.7	.
Cn1cc(S(=O)(=O)N2CCOCC2)cc1C(=O)Nc1ccc(Cl)cc1F	1.1	.
Cc1[nH]nc2c1C(c1cccc(O)c1)N(c1ccc(Br)cc1)C2=O (stereo unspecified)	1.4	.
COc1ccccc1CNc1c(-c2ccc(OC)c(OC)c2)nc2ncccn12	-1.7	.
Cc1ncc(-c2ccc(S(=O)(=O)N3CCc4ccccc4C3)s2)o1	2.5	.
Cc1cccc(-c2sc(=S)n3c2[nH]c(=O)c2ccccc23)c1	-1.7	-1.6
COc1ccc(C2(C)Nc3ccccc3-c3nc4ccccc4n32)cc1 (stereo unspecified)	.	-0.73
O=C(CCCn1c(=O)c2cccn2c2ccccc21)N1CCCCC1	1.9	.
O=C(Nc1ccccc1C(F)(F)F)N1CCCC1c1cccnc1 (stereo unspecified)	.	-1.9
COc1cccc(C(O)c2nc3ccccc3n2C(C)C)c1OC (stereo unspecified)	.	-1.1

The listing continues:
SMILES	HIV TAR-Tat	CDC25B CDK2 inh
O=C1CC(c2ccco2)c2ccc3ccccc3c2N1 (stereo unspecified)	0.5	-0.31
O=C(Nc1nc(-c2cccnc2)cs1)c1ccc2c(c1)OCCO2	0.59	.
O=C(Nc1ccc(Cl)cc1)Nc1ccc(-c2cnco2)cc1	.	-1
NC(=O)CSc1nnnn1-c1ccccc1	1.9	-0.12
CN(C(=O)Cn1nnc2sc(-c3ccccc3)cc2c1=O)C1CCCCC1	2.1	-1.8
COc1ccc(C2/C(=C(/O)c3ccc(Cl)cc3)C(=O)C(=O)N2CCO)cc1 (stereo unspecified)	0.17	-1.9
CC(C)(Oc1ccc(Cl)cc1)C(=O)Nc1sc2c(c1C(N)=O)CCC2	0.04	0.74
CSc1ccc(CCNC(=O)CSc2ccsc2[N+](=O)[O-])cc1	0.24	-0.52
O=C(CSc1ccc2nnc(-c3ccccc3)n2n1)Nc1nccs1	.	0.16
Cc1cc2n(n1)CCCN2CC(=O)N1CCCCC1	0.14	.
O=C(CCc1nnc2ccc(NCc3ccco3)nn12)NCc1cccnc1	1.1	.
Cc1cc(NC(=O)C(=O)NC(=O)c2c(Cl)cccc2Cl)no1	.	-0.96
Cc1ccc2oc(=O)c3cnn(CC(=O)NC4CC4)c3c2c1	0.93	-0.81
CNc1oc(/C=C/c2ccc(F)cc2)nc1C#N	-0.9	-1.3
O=C(CN1CCN(c2ccc(C(F)(F)F)cn2)CC1)Nc1ccc2c(c1)OCO2	.	-0.87
O=C(CSc1nc2sc3c(c2c(=O)[nH]1)CCCC3)NCCN1CCOCC1	0.73	-1.1
CSc1ccc(C2c3c(-c4ccccc4O)n[nH]c3C(=O)N2CC2CCCO2)cc1 (stereo unspecified)	1.8	-2
Cc1c(C(=O)N2CC(C)CC(C)C2)sc2nc3n(c(=O)c12)CCCC3 (stereo unspecified)	0.66	.
NC(=O)Cn1c(=O)n(Cc2ccccc2)c(=O)c2sc3ccccc3c21	0.74	0.17
Cc1cc(C)c(NC(=O)C2CCN(c3nn4c(=O)cc(C)nc4s3)CC2)c(C)c1	3.3	-0.36
CCCn1c2ccccc2c2cnn(CC(=O)Nc3ccc4c(c3)OCO4)c(=O)c21	1	.
CCC(=O)N1c2ccc(S(=O)(=O)CCC(=O)Nc3ccc4c(c3)OCO4)cc2CC1C (stereo unspecified)	0.66	.
COc1ccc(NC(=O)NCCCSC2CCCCC2)c(OC)c1	0.53	.
COc1ccc(CN2CCN(S(C)(=O)=O)CC2)cc1OC	2.3	1.7
Fc1ccccc1-n1nnnc1-c1cnccc1C(F)(F)F	.	-1.8
COc1cccc2c1OC1(CCCCC1)N1N=C(c3ccc(C)o3)CC21 (stereo unspecified)	.	-1.7
CCCCc1nnc2sc(NC(=O)CC(C)C)nn12	2	-0.46
CC1CCN(CCCNC(=O)C2CCCN(c3ncnc4c3nc3n4CCCCC3)C2)CC1 (stereo unspecified)	0.07	.
CCc1ccc2ncc(S(=O)(=O)c3ccccc3)c(N(CC)CC)c2c1	1.6	0.32
O=C(NCCc1c[nH]c2ccccc12)c1noc2c1CSc1ccccc1-2	-0.1	-0.87
COc1cccc(-c2nc3c(c(=O)[nH]2)Cc2ccccc2O3)c1	1.2	-0.04
CC1CCCN(c2cc(NCCN(C)CCO)c3c4c(onc24)-c2ccccc2C3=O)C1 (stereo unspecified)	-1.6	-2.4
Clc1ccc(OCc2nnsc2Cl)c(Cl)c1	.	-2.5
COCCCNC(=O)Nc1nnc(N2CCCC2)s1	0.98	-1.7
CCOC(=O)c1cn2c3c(ccc(C)c3c1=O)OC(CC)C2 (stereo unspecified)	0.43	.
